Arbovirus inh = antivirals against arbovirus infection, primary screen, cell-based, full library, 10K replicate subset | arbovirus infection cell-based antiviral screen | inhibition, % at 10 µM | 200,000 compounds, 0.37% hits | AID 1251, 2008;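 active means inhibition from about 30%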;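 further: bluetongue infection of BSR cells; cell survival read as ATP light after 72 h; 0% = infected wells without compound and 100% = uninfected wells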
RecA intein inh = Mtb RecA intein splicing inhibitors, primary screen, biochemical, fluorescence, HTS; Protein RecA (Mycobacterium tuberculosis (strain ATCC 25618 / H37Rv)), P9WHJ3; cell-free RecA intein splicing; inhibition, %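 (about 9 µM by stock and volumes)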; 290,000 compounds, 0.75% hits; in the data active means inhibition above about 30%; inconclusive means no clear call, values can overlap the other calls;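 further: 0% = vehicle wells and 100% = reference inhibitor control wells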
Target sequence (P9WHJ3 whole entry, looked up): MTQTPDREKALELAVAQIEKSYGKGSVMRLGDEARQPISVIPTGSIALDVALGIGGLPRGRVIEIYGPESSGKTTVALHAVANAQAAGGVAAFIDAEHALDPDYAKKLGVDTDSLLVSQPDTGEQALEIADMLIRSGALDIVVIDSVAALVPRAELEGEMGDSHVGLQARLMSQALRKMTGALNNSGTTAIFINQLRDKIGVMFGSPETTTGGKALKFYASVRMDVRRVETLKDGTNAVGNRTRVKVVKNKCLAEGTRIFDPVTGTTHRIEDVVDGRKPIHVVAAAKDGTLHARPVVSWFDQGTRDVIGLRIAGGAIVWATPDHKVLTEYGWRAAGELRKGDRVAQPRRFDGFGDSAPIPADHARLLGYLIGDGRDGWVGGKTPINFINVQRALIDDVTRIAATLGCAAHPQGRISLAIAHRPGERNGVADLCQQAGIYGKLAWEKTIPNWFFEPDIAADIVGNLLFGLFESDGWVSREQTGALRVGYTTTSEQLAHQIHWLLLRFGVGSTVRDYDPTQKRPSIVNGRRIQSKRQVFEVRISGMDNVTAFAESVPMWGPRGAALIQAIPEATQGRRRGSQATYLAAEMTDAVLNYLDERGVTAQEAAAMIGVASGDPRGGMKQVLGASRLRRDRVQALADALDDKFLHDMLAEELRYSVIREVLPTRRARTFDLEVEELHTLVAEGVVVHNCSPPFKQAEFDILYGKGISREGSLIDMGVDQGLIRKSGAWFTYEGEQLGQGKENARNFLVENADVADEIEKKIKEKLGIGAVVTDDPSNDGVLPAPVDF
Mtb growth = M. tuberculosis H37Rv growth inhibitors, H37Rv strain (AID 1626); M. tuberculosis H37Rv growth inhibition; higher % means a stronger effect; 220,000 compounds, 0.95% hits; inhibition, % at 10 µM, or IC50 in µM where a hit was titrated;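 active means confirmed in a dose series; inconclusive means inhibition above 80% but not taken into the dose series; inactive means below 80% or under 30% at every dose of the series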;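 further: bacteria incubated seven days before Alamar blue readout; 0% = bacteria only wells and 100% = bacteria with antibiotic wells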
Mtb bLac sens = beta-lactam sensitization of Mtb H37Rv, H37Rv | M. tuberculosis H37Rv growth with meropenem, percent inhibition; hits of this screen are not shown here | inhibition, % at 25 µM | 330,000 compounds, 0.27% hits;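 active means about 74% or more and at least 40 points above the plate without the antibiotic, then above 30% in a dose series; inconclusive means first-round hits that could not be retested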;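 further: growth measured after seven days incubation then overnight dye step; 0% = bacteria only wells and 100% = bacteria with antibiotic; twin plates without the antibiotic show which effects depend on it; some results filed as inactive read as strong as hits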
YopH inh = YopH tyrosine phosphatase inhibitors, primary screen, biochemical, fluorescence Ex485/Em525; YopH tyrosine phosphatase [Yersinia enterocolitica]; inhibition, %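 (about 10 µM by stock and volumes)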; 140,000 compounds, 0.16% hits;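 active means inhibition of 50% or more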;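 further: controls were vehicle for no effect and minimum signal wells for full effect; inactives centre near -20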
Arbovirus inh repeat = recorded beside Arbovirus inh, whose call it bears; inhibition, %; measured here: 10K subset replicate screen; many hits read low in the repeat;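 first of two repeat runs on a subset; 0% = infected and 100% = uninfected wells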
* = called active by the depositor; ? = inconclusive; nt = not tested or not shown; & = joins results of further samples.

SMILES | Arbovirus inh | RecA intein inh | Mtb growth | Mtb bLac sens | YopH inh | others
CC1(C)OC2OC(C(=O)N/N=C/c3ccccc3F)C3OC(C)(C)OC3C2O1 (centres undefined) | 1 | 0.0 | 5% | -6 | -9
O=C(NCCc1ccccc1)C(=O)Nc1nccs1 | 4 | -0.5 | 15% | 0 | -48
O=C(OCC(F)(F)F)c1cccc(COc2ccc3ccccc3c2)c1 | 9 | 10 | 57% | 66 | -12
Cc1ccc(N=C2NC(=O)/C(=C/c3cccnc3)S2)c(C)c1 | nt | 12 | 20% | 4 | nt
O=[N+]([O-])c1ccc2oc(-c3ccccc3)nc2c1 | 10 | 4.9 | 4% | 2 | nt
Cc1cn([C@H]2C=C[C@@H](CO)O2)c(=O)[nH]c1=O | 6&0 | -1.4 | -8%&-6% | -3&-10 | -28
c1ccc(CNc2ncnc3sc4c(c23)CCCC4)nc1 | 10 | 1.6 | -6% | 39 | nt
O=C(Nc1ccc2c(c1)OCCO2)c1ccc(NC(=O)C2CCCO2)cc1 (centres undefined) | 7 | 1.5 | 3% | 0 | 7 | Arbovirus inh repeat=-1
C=CCN(c1ccc(C(=O)N2CCCC2)cc1)S(C)(=O)=O | 10 | -1.0 | -7% | -4 | -29
CCOc1ccc(NC(=O)Nc2cccc(C(=O)O)c2)cc1 | 2 | nt | 6% | -8 | nt
Nc1nc(CSc2ncccn2)nc(Nc2ccccc2)n1 | 2 | 0.6 | -5% | 6 | -24
C/C(=N\NC(=O)COc1ccccc1F)c1cc2ccccc2o1 | 11 | -1.9 | 7% | 7 | -20
C=CCN1c2ccccc2[C@]23C[C@@H](C(=O)OC)N(C(=O)NCCC)C2=NC(C(=O)OC)=C(C(=O)OC)[C@H]13 | nt | 6.2 | -1% | -6 | nt
CC(=O)c1ccc(N=Nc2ccc(C)cc2)cc1 | -10 | 2.0 | 18% | nt | nt
COc1ccccc1Nc1nc(NCCC(C)C)nc(N)c1[N+](=O)[O-] | nt | 0.2 | 2% | -1 | nt
COc1ccc(Nc2nnc(SC(C(=O)Nc3cc(C)ccc3C)c3ccccc3)s2)cc1 (centres undefined) | -14 | -1.0 | 4% | 87 | nt
CCCN1C2=C(C(=O)CC(C)(C)C2)C(c2ccc(F)cc2)C2=C1c1ccccc1C2=O (centres undefined) | -7 | 5.0 | -4% | -1 | -8
COc1ccc(CCN2CCCn3c2nc2c3c(=O)n(CC(N)=O)c(=O)n2C)cc1OC | nt | 0.3 | nt | 12 | nt
Fc1ccccc1-c1nnc2c3ccccc3nc(N3CCOCC3)n12 | -1 | -0.7 | -4% | -10 | -32
COC(=O)C1=Nc2ccccc2/C1=C\c1c(O)n(-c2ccc(Br)cc2)c(=O)[nH]c1=O | 10 | nt | -1% | 3 | -25
Nc1nc(/C=C/c2ccc(F)cc2)nc(-c2ccccc2O)n1 | 3 | -2.9 | 12% | -6 | -28
O=C(COc1ccc(Cl)cc1)Nc1cccc(-c2ccc(N3CCOCC3)nn2)c1 | nt | -0.2 | nt | 3 | nt
CC(=O)c1ccc(NC(=S)N2CCC(Cc3ccccc3)CC2)cc1 | nt | 4.3 | -1% | -4 | nt
O=C(Nc1ccc(Br)cc1)Nc1ccccc1Cl | nt | 1.9 | 3% | 1 | nt
CC1CCCCN1C(=O)CSc1nnc(-c2ccccc2F)o1 (centres undefined) | nt | 0.1 | nt | -2 | nt
COc1ccccc1NC(=O)COc1ccc(CO)cc1Cl | 2 | -0.6 | 3% | nt | -13
Cc1ccnc(NC(=O)CCCOc2ccc(Cl)cc2C)c1 | -4 | 0.4 | -8% | 5 | nt
CCOC(=O)CSC1=C(C#N)C(c2ccc(Cl)cc2)C(C(=O)OC)C(=O)N1 (centres undefined) | 3 | 1.7 | -9% | 2 | -60
Cc1ccc(S(=O)(=O)Cc2ccc(C(=O)NCCCN3CCCC3=O)o2)cc1 | 2 | -1.6 | -5% | 0 | -41
CCC(CC)C(=O)Nc1nc(-c2ccc3c(c2)CCN3C(=O)C2CC2)c(C)s1 | 3 | -0.7 | ? | 74 | -1
CC(C)NCC(O)COCCOc1ccc(C(C)(C)C)cc1 (centres undefined) | -7 | -2.3 | -11% | 2 | -18
CCCCOc1ccc(/C(O)=C(\C#N)c2nc3ccccc3[nH]2)cc1 | nt | 1.5 | nt | -2 | nt
CC(C)CNC(C(=O)Nc1ccc([N+](=O)[O-])cc1Br)c1ccccc1 (centres undefined) | 11 | 12 | -11% | 2 | -37
O=C1/C(=C\Nc2ccc(Cl)cc2)CCN1c1ncccn1 | 0 | -1.3 | -1% | 1 | 3
COc1ccc(/C(C)=N\NC(=O)c2ccc3c(c2)OCO3)cc1OC | 7 | -2.2 | 17% | 2 | nt
CCOC(=O)C1=C(C)N(Cc2ccc(C(=O)O)cc2)C(=O)NC1c1ccc([N+](=O)[O-])cc1 (centres undefined) | 5 | 0.7 | -13% | -1 | -28
CCn1cc(C(=O)NCc2ccccn2)c(=O)c2cc(F)c(N3CCN(C)CC3)cc21 | 3 | -2.9 | 8% | 5 | nt
Cc1nc([N+](=O)[O-])cn1C(C)C | nt | 0.8 | -8% | -4 | nt
NS(=O)(=O)c1ccc(NC(=S)NNC(=O)c2ccc(Br)o2)cc1 | nt | 2.7 | nt | -3 | nt
CC(CN1CCN(C)CC1)OC(=O)c1ccc(Cl)cc1Cl (centres undefined) | 12 | -0.5 | -5% | nt | -24
O=C1CCC/C(=N/NC(=O)c2cc(NS(=O)(=O)c3cccs3)cc(NS(=O)(=O)c3cccs3)c2)C1 | nt | -0.9 | nt | -3 | nt
COc1ccc(-c2nc(S(=O)(=O)c3ccccc3)c(N3CCOCC3)o2)cc1 | -7 | -1.3 | 5% | 3 | -25
CC1CCC(C(C)C)C(=O)/C1=C\c1ccc(NC(=O)CCC(=O)O)cc1 (centres undefined) | 8 | 4.1 | 1% | 0 | nt
COc1ccc(Cl)cc1NC(=O)CCn1c(=O)oc2ccccc21 | nt | 0.5 | nt | -9 | nt
CCOC(=O)CN/C=C(\C#N)c1ccc(F)cc1 | -1 | -0.9 | 30% | 54 | nt
Cc1ccc(SCC(=O)c2sc(-c3ccccc3)nc2C)cc1 | -24 | 3.6 | -8% | -4 | -47
Cc1ccc(NC(=O)CCn2nc(C)cc2C)cc1 | -2 | -0.2 | -3% | -2 | -9
CC(C)(C)c1cc(C(=O)NCCN2CCCC2)cc(C(C)(C)C)c1 | 4 | 2.2 | 17% | -3 | nt
CC(=O)C1=NN(c2ccccc2)C2(S1)S/C(=C\c1ccccc1)C(=O)N2c1ccccc1 (centres undefined) | -21 | -0.4 | -3% | 17 | -16
CNc1sc(C(=O)c2cccs2)c(N)c1-c1nc2ccccc2s1 | 2 | -2.5 | 13% | 87 | -14
O=C(COC(=O)/C=C/c1ccco1)NCc1ccccc1Cl | 4 | 1.6 | 2% | 25 | nt
COc1ccc(COC(=O)c2ccc3c(=O)n4c(nc3c2)CCC4)cc1F | nt | 1.1 | 7% | 51 | nt
CS(=O)(=O)c1nc(S(=O)(=O)c2ccc(Cl)cc2)c(N2CCCCC2)s1 | nt | -8.1 | nt | 5 | nt
COc1ccc(OC)c(C(=O)NC(CC(N)=O)c2ccc(NCCOc3ccccc3)c([N+](=O)[O-])c2)c1 (centres undefined) | nt | 0.2 | nt | 20 | nt
CSc1ccccc1NC(=O)CSCc1ccccc1Br | 6 | 0.4 | nt | 0 | -42
Cc1ccc(C2NC(=O)Cc3ccccc32)cc1 (centres undefined) | 2 | 3.9 | 7% | -4 | -24
CC(C)C(=O)NNC(=O)CSc1ncnc2c1cnn2-c1ccccc1Cl | nt | -1.0 | nt | 2 | nt
O=C(COc1cccnc1[N+](=O)[O-])Nc1cccc(S(=O)(=O)N2CCOCC2)c1 | 8 | -3.5 | -1% | 6 | nt
CCOC(=O)C1CCCN(c2c(C(=O)c3ccccc3)cnc3ccccc23)C1 (centres undefined) | 11 | 15 | -5% | -4 | nt
CCOc1ccccc1NC(=O)c1ccc(CN2CCc3ccccc3C2)cc1 | nt | 3.1 | nt | 8 | nt

Further records follow.
SMILES | Arbovirus inh | RecA intein inh | Mtb growth | Mtb bLac sens | YopH inh | others
CCCNC(=O)Cn1cnc2sc(C(=O)Nc3cc(OC)c(OC)c(OC)c3)c(C)c2c1=O | -1 | 0.0 | 2% | -5 | -15
CCSc1nc2c([nH]c3ccccc32)c(=O)n1C | 2 | -0.2 | 4% | 4 | -5 | Arbovirus inh repeat=3
COc1ccc(C2C(C(=O)N3CCOCC3)CCC(=O)N2c2ccc(OC)cc2)cc1 (centres undefined) | 9 | -2.7 | 4% | -2 | -45
CC1CCCCC1NS(=O)(=O)CCNC(=O)c1ccc2c(c1)OCO2 (centres undefined) | nt | 0.9 | nt | -8 | nt
CCOC(=O)N1CCN(C(=O)c2ccc3nc(C)sc3c2)CC1 | 4 | 2.8 | 8% | 4 | -40
CC(C)CN(CC(C)C)S(=O)(=O)c1cc([N+](=O)[O-])ccc1N1CCCCCC1 | -5 | 5.8 | 17% | -1 | -8
COc1ccc(N2CCN(C(=O)CCc3ccccc3)CC2)cc1 | nt | -5.0 | nt | 1 | nt
O=C(COC(=O)c1ccc(S(=O)(=O)NCc2ccco2)cc1)Nc1ncc(Cl)cc1Cl | -1 | 0.9 | 10% | 6 | -26
Cc1ccc(-n2c(C)nc3oc4ccccc4c(=O)c3c2=O)cc1 | 3 | 1.2 | -10% | 2 | -26
O=C(c1cccs1)N1CCn2c1nc1ccccc12 | -3 | 0.8 | -8% | -4 | -30
CCN(CC)S(=O)(=O)c1cc(NC(=O)COC(=O)CCC(=O)c2ccc(F)cc2)ccc1C | 0 | 1.3 | 1% | 3 | -43
COc1cc(OC)c(-c2nc3cnccc3n2C)cc1OC | 4 | -3.6 | -2% | -21 | -30
COC(=O)C(C)Oc1ccc2c(c1)O/C(=C\c1ccco1)C2=O (centres undefined) | nt | -3.1 | nt | 98 | nt
COc1ccc(CN2C(=O)[C@@H]3C(c4ccc(F)cc4)=NO[C@@H]3C2=O)cc1 | 9 | nt | 1% | -5 | -2
COC(=O)c1ccccc1NC(=S)N(Cc1ccc2c(c1)OCO2)Cc1cc2cc(C)ccc2[nH]c1=O | 3 | 9.0 | 7% | 1 | 13
CN(C)c1nnnn1-c1ccc(Oc2ccccc2)cc1 | 1 | -5.5 | 2% | 8 | nt
Nc1c(C=C2C=CC(=O)C=C2)c(=O)nc2snc(SCc3ccccc3)n12 | nt | 8.0 | -11% | -1 | nt
COc1ccc(-n2cc(-c3ccccc3)c3c(=S)nc[nH]c32)cc1 | nt | 0.5 | nt | 3 | nt
CN1CCN(C(=O)C2CC(c3ccc(F)cc3)=NO2)CC1 (centres undefined) | -7 | 1.7 | -1% | 2 | -3
Cc1cc(-c2nn3c(-c4ccccc4)nnc3s2)c2ccccc2n1 | -11 | 2.4 | 4% | -1 | -1

Three entries already listed, sorted by count of non-hydrogen atoms, lowest first.
SMILES | Arbovirus inh | RecA intein inh | Mtb growth | Mtb bLac sens | YopH inh | others
O=C(c1cccs1)N1CCn2c1nc1ccccc12 | -3 | 0.8 | -8% | -4 | -30
CC(C)CN(CC(C)C)S(=O)(=O)c1cc([N+](=O)[O-])ccc1N1CCCCCC1 | -5 | 5.8 | 17% | -1 | -8
COC(=O)c1ccccc1NC(=S)N(Cc1ccc2c(c1)OCO2)Cc1cc2cc(C)ccc2[nH]c1=O | 3 | 9.0 | 7% | 1 | 13

Random excerpt: three entries already listed
SMILES | Arbovirus inh | RecA intein inh | Mtb growth | Mtb bLac sens | YopH inh | others
Cc1ccc(-n2c(C)nc3oc4ccccc4c(=O)c3c2=O)cc1 | 3 | 1.2 | -10% | 2 | -26
Nc1c(C=C2C=CC(=O)C=C2)c(=O)nc2snc(SCc3ccccc3)n12 | nt | 8.0 | -11% | -1 | nt
CCCNC(=O)Cn1cnc2sc(C(=O)Nc3cc(OC)c(OC)c(OC)c3)c(C)c2c1=O | -1 | 0.0 | 2% | -5 | -15

New compounds follow.
SMILES | Arbovirus inh | RecA intein inh | Mtb growth | Mtb bLac sens | YopH inh | others
COc1ccccc1N1CCN(S(=O)(=O)c2c(C)[nH]c(=O)[nH]c2=O)CC1 | 2 | 11 | 4% | 14 | nt
COc1ccc(-c2csc(Nc3ccc(S(N)(=O)=O)cc3)n2)cc1OC | -18 | 2.1 | 29% | 87 | nt
O=C1C(=O)N(CCN2CCOCC2)C(c2cccc(Cl)c2)/C1=C(/O)c1ccc2c(c1)OCO2 (centres undefined) | nt | 0.1 | nt | -5 | nt
Cc1ccc(S(=O)(=O)Nc2ccc3c(c2)nc(CN2CCCC2)n3C)cc1 | 0 | -3.6 | 0% | 0 | 4
CCc1nnc(NC(=O)[C@@H](NC(=O)c2cccc(C)c2)C(C)C)s1 | 2 | -4.3 | 0% | 10 | -32

Screening results (PubChem)

Not all compounds are listed; rates above refer to the full screens.
